# H5N1 antiviral: antiviral screen in MDCK cells, H5N1 avian flu; 96,000 compounds, 0.07% hits; cytopathic effect, luminescence, 72 h; hits give high values; no value below 0 was filed and about half of the inactive calls have no number; reference of the scale not given here; inhibition, % at 50 µM; in the data active = inhibition above about 25%
# The depositor's hits bear a star; i = inactive.
SMILES,H5N1 antiviral
CN1CCN(/C=N/C2=C(C#N)C(c3ccccc3)C3=C(CC(C)(C)CC3=O)O2)CC1 (stereo unspecified),1.0
CC1(C)CC(=O)C2=C(C1)N(CCN1CCOCC1)C1=C(C(=O)CC(C)(C)C1)C2c1cccc(F)c1,0.6
COc1ccccc1-n1c(CNC(=O)c2ccc(S(=O)(=O)N3CCOCC3)cc2)n[nH]c1=S,1.0
O=C(CCCSc1nc2sc3c(c2c(=O)[nH]1)CCC3)NCCO,i
COc1ccc(N2C(=O)CC(Nc3ccc(N4CCOCC4)cc3)C2=O)c(OC)c1 (stereo unspecified),2.1
COc1cc2c(cc1OC)C(c1ccc(C)o1)CC(=O)N2 (stereo unspecified),i
O=c1[nH]c(NC2CCCCC2)nnc1Cc1ccccc1,i
CC(C)CNC(=O)COC(=O)c1ccc(Cl)c(S(N)(=O)=O)c1,i
CCOC(=O)c1ccc(N/C=C/C(=O)c2ccco2)cc1,i
CCCCc1ccc(N2C(=O)[C@@H]3C(CC(N)=O)NC4(C(=O)Nc5ccc(F)cc54)[C@@H]3C2=O)cc1 (stereo partly specified),i
CCCS(=O)(=O)N1CCN(S(=O)(=O)c2ccccc2)CC1,1.4
CN1Cc2cc(C(=O)c3cc(Cl)cc(CSc4ncccn4)c3O)cnc2NC1=O,1.6
CCOC(=O)c1c(C)nc2c(c1-c1ccc(OC)c(OC)c1)C(=O)c1ccccc1-2,1.7
CCN(C(=O)COC(=O)c1ccc(OCc2c(C)noc2C)cc1)c1ccccc1,0.4
C1=C(c2ccccc2)CCN(c2ncnc3nc[nH]c23)C1,i
COc1ccccc1NC(=O)N1CCCC1C(=O)NC1CCCCC1 (stereo unspecified),0.8
O=C(COC(=O)C12CC3CC(CC(C3)C1)C2)N1CCN(S(=O)(=O)c2ccccc2)CC1,0.3
CC1CC(c2ccccc2)n2nc(NC(=O)c3ccco3)nc2N1 (stereo unspecified),0.1
CCC(=O)Nc1ccccc1C(=O)OCC(=O)Nc1ccc(S(N)(=O)=O)cc1,0.4
CN(C(=O)COC(=O)CNS(=O)(=O)/C=C/c1ccccc1)C1CCS(=O)(=O)C1 (stereo unspecified),0.1
CCn1c(C)cc(/C=C2\NC(=O)N(Cc3ccc(Cl)cc3)C2=O)c1C,0.1
Cn1c(=O)c2c(nc(Br)n2CCSc2nc3ccccc3o2)n(C)c1=O,3.1
CC(C)OCCCNC(=O)CN1C(=O)CC(C)(C)S(=O)(=O)c2ccccc21,1.1
CCCCCC(=O)Nc1cc(N(C)C)nc2ccccc12,i
Cc1nc2ccccc2n1S(=O)(=O)N(C)C,0.9
COc1cc(NS(=O)(=O)c2ccc(NC(=O)CSC3=NCCS3)cc2)nc(OC)n1,i
CCOc1cc2nc(-c3ccc(OC)c(OC)c3)nc(N3CC(C)OC(C)C3)c2cc1OC (stereo unspecified),0.3
C/C(CC(=O)NCc1ccco1)=N\NC(=O)C(c1ccccc1)c1ccccc1,i
CC(C)N1C(=O)C2ON(c3ccccc3)C(c3cccs3)C2C1=O (stereo unspecified),2.8
CC(=O)c1ccc(NC(=O)CCSCCC(=O)Nc2ccc(C(C)=O)cc2)cc1,i
CCOC(=O)c1cnn(-c2ccccc2)c1-n1cccc1C(=O)C(=O)Nc1ccc(OC)cc1,i
CCCCC(=Nc1ccc(N)cc1)C1=C(O)C(C(=O)OC)C(C)(C)CC1=O (stereo unspecified),i
Cc1[nH]n(-c2cccc(Cl)c2)c(=O)c1-c1ccc(Cl)cc1,i
COc1ccc(N2C(=O)CC(SCCc3nc4ccccc4[nH]3)C2=O)cc1 (stereo unspecified),0.3
COc1ccc(CCN(C(=O)C(F)(F)F)C(C(=O)NC2CCCC2)c2cccs2)cc1OC (stereo unspecified),i
CCN1C(=O)/C(=C/c2ccc(C)s2)SC1=Nc1ccc(OC)cc1,0.4
CS(=O)(=O)N1CCN(c2ccc(NC(=O)Cc3ccccc3)cc2)CC1,0.5
O=C(N/N=C/c1c[nH]c2ccccc12)c1ccn(Cc2ccc(Cl)cc2)n1,i
CCCCN1CN(S(=O)(=O)c2cccs2)c2nc3ccccc3nc21,0.1
CN1CCN(Cc2cccc(Oc3ccc(Cl)cc3)c2)CC1,i
CCn1c(COc2ccccc2)nnc1SCC(=O)Nc1ccc2c(c1)OCCO2,i
COc1ccc(-c2cc(C(=O)Nc3cnn(Cc4ccccc4C)c3)no2)cc1OC,0.5
Cc1cccc(N=Cc2cc3c(cc2[N+](=O)[O-])OCO3)c1,i
CCCCCC1CC(=O)N(Cc2ccc(Cl)cc2)C(=O)N1 (stereo unspecified),i
Cn1c(=O)[nH]c(=O)c2c1nc(N(CCO)Cc1ccccc1)n2CCCc1ccccc1,i
COc1cc(CCN2C(=O)c3cccc4cccc(c34)C2=O)c(S(=O)(=O)NCCCO)cc1OC,1.9
N#C/C(=C1/CCCCCN1)c1nc2ccccc2s1,i
CCCCOC(=O)Nc1cccc(Cl)c1C,0.4
Cn1c(SCC(=O)C(C)(C)C)nnc1-c1cccnc1,i
CCCCN1C=C(C(=O)OC)C(c2ccccc2C(F)(F)F)C(C(=O)OC)=C1,2.2
Nc1nc(CN2CCCCCC2)nc(Nc2ccc(F)cc2)n1,0.6
COc1ccccc1-c1c(C)nn2c(N3CCN(c4ccccc4OC)CC3)cc(C)nc12,i
Cc1cc(C)n2nc(C(=O)NC(C)(C)C)nc2n1,0.5
C=CCSc1nc(N)c(C(=O)Nc2ccccc2C)cc1C(N)=O,i
O=C(c1coc(=O)c(Br)c1)N1CCOCC1,1.1
COc1ccc(NC(=O)c2cc(C(C)C)on2)cc1OC,i
CC(C)COC(=O)NCCCOC(=O)Nc1ccccc1,0.2
CC(C)C[C@H](NC(=O)Nc1cccc(Cl)c1)C(=O)O,i
CCn1c(O)c(C=NCc2cccs2)c(=O)[nH]c1=O,1.9
CCOC(=O)COc1cc2c(C(=O)OCC)c(C)oc2cc1Br,i
# Next section:
SMILES,H5N1 antiviral
N#Cc1nc(-c2ccc(OCc3ccccc3)cc2)oc1N1CCOCC1,0.1
COc1ccc(-c2cc(C(=O)OCC(=O)N(C)C)c3ccccc3n2)cc1,i
O=C(Cn1cc2c(n1)CCCCC2)NCCN1CCOCC1,i
CC(C)N(Cc1cc2ccccc2[nH]c1=O)C(=O)C1CCCCC1,i
O=C1c2ccccc2-c2nc3ncnn3c(-c3ccccc3Cl)c21,1.9
CCCn1c(=O)[nH]c(=O)c2c1nc(-c1ccccc1OC(F)F)n2CCOC,0.3
O=C(O)CC1SC(=Nc2cccc(O)c2)NC1=O (stereo unspecified),i
CCOc1ccc2c(C)c(C)c(=O)oc2c1OCC,1.5
COc1cccc(/C(C#N)=C/c2c(-c3ccc(Cl)cc3)nc3c(C)cccn23)c1,0.5
Cc1csc(Cn2c(CN(C)C)nc3ccccc3c2=O)n1,2.2
Cc1ccc(O)c(CN2CCN(c3ccccc3)CC2)c1,i
Oc1cc(NCc2cccnc2)ccc1-c1nc2ccccc2o1,4.6
CC(C)NCCOCCSc1ccc(Cl)cc1,0.1
C=CCc1cccc(/C=N/NC(=O)CNc2ccccc2)c1O,i
COCCN(C(=O)c1ccccc1)c1nnc(-c2cccnc2)s1,i
CS(=O)(=O)N(CC(=O)N1CCCCC1)c1sc2c(c1C#N)CCCC2,1.2
Cc1ccc(C)c(NC(=O)c2ccccn2)c1,i
Cc1cc2ncn(CC(O)COc3cccc(C(=O)O)c3)c2cc1C (stereo unspecified),i
COc1cc(C2C(C#N)=C(N)Oc3n[nH]c(-c4ccncc4)c32)cc(OC)c1OC (stereo unspecified),i
COC(=O)c1cccc(S(=O)(=O)N2CCOCC2)c1,i
O=c1c2ccccc2nnn1CSc1nnc2ccccn12,2.3
COc1ccc(-c2cc3ccccc3oc2=O)cc1NC(=S)NC(=O)c1ccc2c(c1)OCCO2,i
COC(=O)c1cccc(NC(=O)c2nn(C(C)C)c(=O)c3ccccc23)c1,0.9
Cc1nn(Cc2ccccc2)c(C)c1NC(=O)CSc1nc(C2CC2)nc2c1cnn2-c1ccccc1,i
CCOC(=O)N(Cc1ccccc1)C(C(=O)O)C(C(=O)O)N(Cc1ccccc1)C(=O)OCC (stereo unspecified),0.8
CC12CCC(C(=O)NCc3cccnc3)(OC1=O)C2(C)C (stereo unspecified),0.0
COc1ccccc1NS(=O)(=O)c1cccc2cccnc12,1.0
CCc1ccc(-n2c(CSc3nnnn3-c3ccccc3)nc3ccccc3c2=O)cc1,0.6
CCOc1ccc(C2(C#N)CC[N+](C)(C)CC2)cc1,i
CNc1nc(C)c(C(=O)OCC(=O)OC)s1,0.1
CC1(C(=O)O)CC(C)(C(=O)O)CC(C)(C(=O)O)C1 (stereo unspecified),0.1
COc1ccc(OC)c(NC(=O)CSC2=NCCS2)c1,i
OC(c1ccc(Cl)cc1Cl)C(Cc1cccnc1)n1cncn1 (stereo unspecified),0.5
CCOC(=O)c1ccc(COC(=O)CCc2nc(-c3ccccc3)c(-c3ccccc3)o2)cc1,i
COc1cccc(NC(=O)CSc2nc(N)cc(N)n2)c1,i
CC(C)CN(CC(C)C)S(=O)(=O)N1CCC(C(=O)NCc2ccccn2)CC1,i
Cc1ccccc1NC(=O)CCC(=O)OCCCC(F)(F)C(F)(F)F,i
Cn1c(=NC(=O)C2CCN(S(=O)(=O)c3cccs3)CC2)sc2ccccc21,i
CC(c1ccccc1F)n1cc(C(=O)NCc2ccncc2)nn1 (stereo unspecified),0.5
COc1ccc(S(=O)(=O)NCc2ccco2)c2ccccc12,3.5
CCOC(=O)C1CCCN(Cc2ccc(O)c(OC)c2)C1 (stereo unspecified),i
O=C(Cn1cnc2c(nnn2Cc2ccc(F)cc2)c1=O)NC1CCCC1,i
Cc1cc(NC(=O)COC(=O)c2cccc(OCc3ccccc3)c2)no1,i
COc1ccc(C2SCC(C(=O)NCc3ccc(F)cc3)N2C(C)=O)cc1 (stereo unspecified),2.3
O=C(CSc1ccccn1)Nc1ccc(Br)cn1,0.6
COC(=O)[C@H](C)NC(=O)NC(C)CCc1ccccc1 (stereo partly specified),i
CC1OC2C(OC1C)N(S(C)(=O)=O)CCN2S(C)(=O)=O (stereo unspecified),1.0
Cc1ccc(-n2nc(C)c3c2OC(N)=C(C#N)C3c2ccc(F)cc2)cc1 (stereo unspecified),i

# Another view of part of the listing above:
Structure	H5N1 antiviral
CCc1ccc(-n2c(CSc3nnnn3-c3ccccc3)nc3ccccc3c2=O)cc1	0.6
CCOc1ccc(C2(C#N)CC[N+](C)(C)CC2)cc1	i
CNc1nc(C)c(C(=O)OCC(=O)OC)s1	0.1
CC1(C(=O)O)CC(C)(C(=O)O)CC(C)(C(=O)O)C1 (stereo unspecified)	0.1
COc1ccc(OC)c(NC(=O)CSC2=NCCS2)c1	i
OC(c1ccc(Cl)cc1Cl)C(Cc1cccnc1)n1cncn1 (stereo unspecified)	0.5
CCOC(=O)c1ccc(COC(=O)CCc2nc(-c3ccccc3)c(-c3ccccc3)o2)cc1	i
COc1cccc(NC(=O)CSc2nc(N)cc(N)n2)c1	i
CC(C)CN(CC(C)C)S(=O)(=O)N1CCC(C(=O)NCc2ccccn2)CC1	i
Cc1ccccc1NC(=O)CCC(=O)OCCCC(F)(F)C(F)(F)F	i
Cn1c(=NC(=O)C2CCN(S(=O)(=O)c3cccs3)CC2)sc2ccccc21	i
CC(c1ccccc1F)n1cc(C(=O)NCc2ccncc2)nn1 (stereo unspecified)	0.5
COc1ccc(S(=O)(=O)NCc2ccco2)c2ccccc12	3.5
CCOC(=O)C1CCCN(Cc2ccc(O)c(OC)c2)C1 (stereo unspecified)	i
O=C(Cn1cnc2c(nnn2Cc2ccc(F)cc2)c1=O)NC1CCCC1	i
Cc1cc(NC(=O)COC(=O)c2cccc(OCc3ccccc3)c2)no1	i
COc1ccc(C2SCC(C(=O)NCc3ccc(F)cc3)N2C(C)=O)cc1 (stereo unspecified)	2.3
O=C(CSc1ccccn1)Nc1ccc(Br)cn1	0.6

# Additional structures:
SMILES,H5N1 antiviral
CC(=O)Nc1ccccc1OCC(=O)c1cc(C)n(Cc2cccs2)c1C,4.9
O=C(Nc1nc(-c2ccco2)cs1)c1ccccc1,i
Cc1n[nH]c(C)c1C(=O)CC1(O)C(=O)N(Cc2ccccc2)c2ccc(Br)cc21 (stereo unspecified),i
NC(=O)c1oc2ccc(Cl)cc2c1N,0.4
O=C(NC(C(=O)c1ccccc1)n1ccc(=O)[nH]c1=O)c1ccccc1 (stereo unspecified),2.2
Cc1cc(C)c(NN=c2c(=O)c3ccccc3c2=O)c(C)c1,i
O=C(c1ccco1)N1CCN(S(=O)(=O)c2ccc(Cl)s2)CC1,0.6
COc1cc(C(=O)Nc2cc(C)ccn2)cc(OC)c1OC,i
O=C(CSc1ncccn1)NCc1ccccc1,1.0
CC1(C)CC(=O)C2=C(C1)Oc1ncn(CCCn3ccnc3)c(=N)c1C2c1ccccc1 (stereo unspecified),1.0
Cc1nn(-c2ccccc2)c2c1C(c1cccnc1)N1C=C(S(=O)(=O)N3CCCCC3)C=CC1=N2 (stereo unspecified),0.7
O=C(COc1ccccc1)Nc1ccc(S(=O)(=O)N2CCCC2)cc1,0.6

# Ordered by molecular weight (descending): 3 of the compounds above
SMILES,H5N1 antiviral
O=C(COc1ccccc1)Nc1ccc(S(=O)(=O)N2CCCC2)cc1,0.6
Cc1cc(C)c(NN=c2c(=O)c3ccccc3c2=O)c(C)c1,i
O=C(CSc1ncccn1)NCc1ccccc1,1.0

# Other entries follow:
SMILES,H5N1 antiviral
CCCc1nc2oc3c(NCC4CCCO4)ncnc3c2c2c1COC(C)(C)C2 (stereo unspecified),1.1
N=c1n(CCN2CCCCC2)c2ccccc2n1CC(O)c1ccc(Cl)c(Cl)c1 (stereo unspecified),i
O=C(CN1C(=O)C2CC=CCC2C1=O)Nc1ccc(-c2nnc3n2CCCCC3)cc1 (stereo unspecified),0.6
CC1CCC(NC(=O)C2c3ccccc3C(=O)N2CCCN2CCOCC2)CC1 (stereo unspecified),i
CC(C)(C)C(=O)Nc1ccc(Oc2ccc3c(c2)C(=O)N(c2ccc(O)cc2)C3=O)cc1,i
c1cnc(Oc2ccc3oc4ccccc4c3c2)nc1,0.1
c1ccc(CCc2nn3c(Cn4cnc5ccccc54)nnc3s2)cc1,0.8
CCOC(=O)CN1C(=O)C(Sc2n[nH]c(-c3ccc(C)cc3)n2)CCc2ccccc21 (stereo unspecified),1.0
CCOC(=O)CS(=O)(=O)c1ccc2ccccc2c1,1.2

# Bioassay records from PubChem BioAssay.

# These rows are one share of the data; rates above refer to the full screens.
